# miR-21 reporter – miR-21 reporter, rising signal; 340,000 tested, under 10 active; HeLa miR-21 FLuc reporter, luciferase, 48 h; Potency, µM (series often up to 38.3 µM), for the others: top-dose reporter change, positive = more light; active = well fitted rising curve with a large enough effect; inconclusive = small, poorly fitted or top-dose-only effect; inactive = no such curve, though single readings can be large or run the other way;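 also: % of control where 0% means no effect; miR-21 action dims this reporter so a rising signal means less miR-21 action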
#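 HeLa cells endogenously expressing miR-21, stably carrying CMV-driven firefly luciferase with a downstream miR-21 binding site, 2000 cells/well. Titrations up to approximately 40 uM, 48 hours; luciferase luminescence read.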
# Numbers without * were called inactive; ? = inconclusive. A portion of the library (hit frequency here may not be typical).
SMILES,miR-21 reporter
COc1ccc(S(=O)(=O)N(CC(=O)NCCc2ccccc2)c2ccc(Cl)cc2)cc1,-9.2%
CC(C)c1ccc(OCc2cc(=O)n3c(-c4ccccc4)csc3n2)cc1,-11.4%
CCc1cccc(CC)c1NC(=O)C1CCC(CNS(=O)(=O)c2cccc3nsnc23)CC1 (centres undefined),5.2%
COc1ccc(OC)c(CCNC(=O)c2ccc3c(c2)N(Cc2ccc(C)cc2)CCS3)c1,9.4%
CCOc1ccc(NC(=O)NCCc2c(C)nn(C)c2C)cc1,-0.6%
CCc1ccc(NC(=O)C2CCCN2S(=O)(=O)c2ccc3c(c2)CCCC(=O)N3)cc1 (centres undefined),4.4%
CCOc1ccc(CCNC(=O)c2cccc(-n3c(C)nc4cccnc43)c2)cc1,?
Clc1ccc(-c2noc3ncnc(N4CCCCC4)c23)cc1,-15.2%
COc1ccccc1CN1CCNC(=O)C1=O,0.5%
CCc1ccccc1-n1nnc(-c2nc(-c3ccccc3F)no2)c1C,-23.0%
CCCOc1ccc(NC(=O)CC2C(=O)N(c3ccc(C)cc3)C(=O)N2C2CCCC2)cc1 (centres undefined),-2.2%
CCOc1cc(-c2nc3c(c(CC)nn3-c3ccccc3)c3cc(OC)c(OC)cc23)ccc1O,-2.1%
Cc1ccc(N2CC(NC(=O)Cc3ccc(F)cc3)CC2=O)cc1 (centres undefined),-1.9%
CCc1ccccc1NC(=O)C(=O)NCC(c1cccnc1)N1CCc2ccccc21 (centres undefined),-1.6%
O=C(Nc1ccc(F)cc1)[C@H](CSCc1ccccc1)N1Cc2ccccc2C1=O,4.0%
Cc1ccc(Nc2ccc3cc(S(=O)(=O)N4CCCCC4)ccc3n2)cc1F,29.8%
COc1ccc(-c2cc(-c3ccc4c(c3)NC(=O)CO4)nc3c2COc2ccc(C)cc2-3)cc1,-16.0%
COc1ccc(-c2cc(C(C)=O)c(C)n2CCC(=O)Nc2cccc(C)c2C)cc1,-0.6%
Cc1ccc2c(c1)C(Cc1ccccc1F)C(=O)N2 (centres undefined),14.9%
Cc1nc2nc(SCC(=O)N(C)Cc3ccccc3)nn2c(C)c1Cc1ccccc1Cl,2.3%
CC(C)(C)C1CCc2c(sc(NC(=O)c3cc(-c4ccc(F)cc4)on3)c2C#N)C1 (centres undefined),2.0%
CC1=C(C(=O)OCC2CCCCC2)C(c2ccc(Cl)cc2)CC(=O)N1 (centres undefined),17.5%
Cc1cc(C)cc(NC(=O)c2ccc3c(O)c(S(=O)(=O)c4ccccc4)c(=O)[nH]c3c2)c1,0.5%
COc1ccccc1NC(=O)c1c(NCc2ccc(OC)c(OC)c2OC)sc2c1CCCC2,-4.8%
Cc1ccc(C)c(NC(=O)c2ccc3c(O)c(S(=O)(=O)c4ccc(Cl)cc4)c(=O)[nH]c3c2)c1,-0.2%
CC(C)Cn1cc(NC(=O)NCc2ccc(Cl)cc2)c2ccccc2c1=O,-1.1%
Cc1ccc(C)c(N2CCN(c3nccn4nc(-c5ccc(Br)cc5)cc34)CC2)c1,-6.3%
O=C(NCCOCCn1c(=O)oc2ccccc21)Nc1cccc(Cl)c1,18.6%
O=C1C(=O)N(C2CCN(C(=O)c3ccc(F)cc3)CC2)CCN1Cc1ccc(F)cc1,-1.0%
Cc1cccc(N(C)C(=O)CCS(=O)(=O)c2ccc3c(c2)n(C)c(=O)c(=O)n3C)c1,-0.7%
CCOC(=O)C1CCN(C(c2ccc(OCC)cc2)c2c(O)cc(C)n(CCOC)c2=O)CC1 (centres undefined),-0.8%
Cc1ccc(C(=O)COC(=O)c2cccc(NC(=O)c3ccc(Cl)cc3Cl)c2)cc1,17.2%
COc1ccc(CC(=O)NCc2nc3cccnc3n2Cc2ccc(F)cc2)cc1OC,0.0%
COc1cc(NC(=O)CN2C(=O)C(c3ccc(Cl)cc3)=NC23CCCCC3)cc(OC)c1,?
O=C(Nc1c(Cl)cccc1Cl)c1cccc2c1C(=O)N(C1CCCCC1)C2,-5.5%
COC(=O)c1ccc(NC(=O)c2c(NCc3ccc(OC)c(OC)c3)sc3c2CCCC3)cc1,3.6%
Cn1c(SCc2ccc(F)cc2)nc2ccc(C(=O)NCc3ccccc3)cc21,-0.7%
Cc1cccc(CSc2nnc(CCCCCN)o2)c1,?
CCOc1ccc(C(=O)Nc2cc(-c3ccccc3)no2)cc1,-41.2%
O=C(Nc1ccc(F)cc1)[C@H](Cc1ccccc1)N1Cc2ccccc2C1=O,-2.1%
Cc1cccc(-c2noc(-c3ccc(NCc4ccco4)c([N+](=O)[O-])c3)n2)c1,2.2%
CCOCCCNC(=O)NC(C)c1c(-n2cccc2)sc2c1CCN(CC)C2 (centres undefined),-3.9%
COCCCNC(=O)c1sc2ncccc2c1-n1cccc1,-9.9%
O=c1c2nncn2ccn1-c1ccc(F)c(F)c1,-4.4%
COc1ccc(C)c2sc(N(Cc3cccnc3)C(C)=O)nc12,-6.6%
COc1ccc(CNC(=O)c2ccc(CN3C(=O)C(C)=C(c4ccc(C)cc4)S3(=O)=O)cc2)cc1,-4.6%
CCNC(=O)c1cc2n(n1)CCCN(Cc1ccc(C)cc1)C2=O,2.2%
Cc1cccc(NC(=O)C(c2ccccc2)N2Cc3ccccc3C2=O)c1C (centres undefined),0.0%
Cc1ccc(CCNC(=O)c2ccc(NC(=O)N3CC(C)Sc4ccccc43)cc2)cc1 (centres undefined),-2.5%
Cc1nc(-c2ccc(Cl)cc2)sc1CCNC(=O)Cc1ccc(F)cc1,3.2%
O=C(NCc1ccco1)C1CCN(C(=O)N2CCOc3ccc(Cl)cc32)CC1,-31.9%
COc1ccc(CC(=O)NCC(c2ccc(Cl)cc2)N2CCOCC2)cc1 (centres undefined),-3.5%
O=C(NCCS(=O)(=O)N1CCN(c2ccccc2F)CC1)c1ccccc1C(F)(F)F,5.8%
Cc1ccc(C(=O)N2CCc3cc(CNC(=O)c4ccccc4F)ccc32)cc1,18.0%
CCOc1ccc(-c2cc3nc(C4CCN(C(=O)OC(C)(C)C)CC4)c(C(=O)Nc4cc(OC)ccc4OC)cn3n2)cc1,8.4%
COc1ccc(S(=O)(=O)c2c(O)c(C)cc(NC(=O)c3ccccc3)c2C(C)C)cc1,2.3%
O=C1CC(c2nnc(Cc3ccc(F)cc3Cl)o2)CN1c1ccccc1 (centres undefined),0.3%
COc1ccc(CNC(=O)c2c(Nc3ccc(OC)cc3OC)sc(C(=O)c3ccc(Cl)cc3)c2N)cc1,8.2%
Cc1ccn2c(c1)nc(=O)c1cc(S(=O)(=O)N3CCC(C)CC3)c(Cl)cc12,-6.0%
Cc1cn(C)c(CC(=O)NCc2cccc(Cl)c2)c1C(=O)O,6.8%

# Other results follow.
SMILES,miR-21 reporter
CCOc1ccccc1CNC(=O)c1oc2ccc3c(c2c1C)C(=O)CC(C)(C)O3,-30.0%
COc1ccc(C2Sc3ccccc3NC3=C2C(=O)c2ccccc23)c(OC)c1OC (centres undefined),22.5%
CC(=O)C(Sc1nc(-c2ccccc2Cl)nc2c1c(=O)n(C)c(=O)n2C)C(=O)N(C)C (centres undefined),-0.5%
COc1cccc(Oc2nc3c(c(=O)n(Cc4ccccc4F)c(=O)n3C)n2C)c1,-11.3%
CN(C)c1ccc(NC(=O)CSC2=Nc3ccccc3C3=NC(CC(=O)NCc4ccc5c(c4)OCO5)C(=O)N23)cc1 (centres undefined),-27.4%
CCC(CC)C(=O)Nc1ccccc1C(=O)OCc1cc(=O)n2nc(C3CCCCC3)sc2n1,-0.8%
Cc1cccc(N2CCN(C(=O)c3ccc4c(c3)NC(=O)C(CSCc3cccc(F)c3)N4)CC2)c1C (centres undefined),2.8%
COCCNC(=O)CCn1c(=O)c2cc(OC)c(OC)cc2n(CC(=O)Nc2ccccc2C)c1=O,-1.0%
CC(=O)c1cc(-c2ccccc2)n(CC(=O)NCc2ccccc2C)c1C,-8.0%
Cc1ccccc1NC(=O)CSc1nc2ccc(NC(=O)COc3ccccc3F)cc2s1,4.1%
COc1ccc(CNC(=O)C2CCN(Cc3nc(-c4ccc(Cl)cc4)oc3C)CC2)cc1,-0.1%
CCn1cc2c(n1)-c1c(oc(C(=O)Nc3ccc(Br)cc3F)c1C)CC2,-2.0%
Cn1c(=O)c2c(nc(Oc3ccc(F)cc3)n2Cc2ccc(F)cc2)n(C)c1=O,0.9%
CC(C)Oc1ccc(CNC(=O)c2ccc3c(c2)N(Cc2ccc(F)cc2)CCS3)cc1,0.2%
COc1ccc2c(Sc3ccccc3)c(C(=O)NCCc3ccc(Cl)cc3)[nH]c2c1,19.6%
CC1CCN(C(=O)CSc2nc3ccccc3nc2Cc2ccccc2)CC1,6.2%
COc1ccc(OC)c(CNC(=O)Cn2nc(C)c3nn(-c4ccc(Cl)cc4)c(C)c3c2=O)c1,0.8%
CC(C)(C)c1ccc(OCc2nnc(-c3ccccc3)o2)cc1,-13.3%
CCn1cc(C(=O)NCCCOC(C)C)c(=O)c2cc(S(=O)(=O)N3CCc4ccccc4C3)ccc21,-1.5%
COc1cccc(CNC(=O)CSc2nc3ccccc3nc2Cc2ccc(C)cc2)c1OC,-1.6%
Cc1ccc(NC(=O)N2CCC(CN3CCCCC3)CC2)c(Cl)c1,-7.7%
Cc1ccc(Cc2c(C)nn(-c3nc(C)c(C(=O)N4CCCCC4C)s3)c2C)cc1 (centres undefined),-25.6%
O=C(Cn1cnc2c(oc3ccccc32)c1=O)Nc1ccc(F)cc1F,3.2%
COC(=O)c1ccc2c(=O)n(CCCCCC(=O)N3CCN(c4cc(Cl)ccc4C)CC3)c(=O)[nH]c2c1,?
Cc1ccc(NC(=O)CCn2cccn2)c(C)c1,-11.0%
O=C(NCCc1csc(-c2cccc(F)c2)n1)c1ccc(Br)o1,9.7%
CCc1ccccc1NC(=O)Cn1c(=O)n(CC(=O)NCCc2ccccc2)c(=O)c2ccccc21,-0.6%
CCCc1ccc(OC(=O)CSc2nnc(-c3cccs3)o2)cc1,0.5%
Cn1c(=O)c2sccc2n2c(CCCC(=O)Nc3ccc(Oc4ccc(Cl)cc4)cc3)nnc12,?
Cc1ccc(Cl)cc1N1CCN(C(=O)C2CCN(S(=O)(=O)Cc3ccccc3)CC2)CC1,19.7%
CCOC(=O)c1cc(-c2ccccc2)n(CC(=O)NCc2ccccc2OC)c1C,-4.0%
Cc1cccc(-n2ccnc2SCC(=O)Nc2ccc3c(c2)OCO3)c1,-11.3%
CC1CCc2c(sc(NC(=O)C3c4ccccc4Oc4ccccc43)c2C#N)C1 (centres undefined),21.2%
CC(C)c1ccc(Nc2nc3ccc(C(=O)c4ccccc4)cc3n3cnnc23)cc1,-8.0%
CCn1cc2nc(SCC(=O)Nc3ccc(OC)c(OC)c3)n(Cc3ccc(Cl)cc3)c(=O)c2n1,-13.1%
Cc1cccc(Cn2c(SCc3ccc(C(=O)NC4CCCCC4)cc3)nc3ccncc32)c1,-0.8%
CC(C)OCCCNc1ncnc2sc3c(c12)CCCC3,12.3%
CC(C)Oc1ccc(CNC(=O)c2ccc(NC(=O)N3CC(C)Sc4ccccc43)cc2)cc1 (centres undefined),3.5%
Cc1cccc(N(C)C(=O)Cc2c(C(=O)O)[nH]c3ccccc23)c1,9.9%
O=C(OCc1cc(=O)n2nc(C3CC3)sc2n1)c1ccccc1Cl,-41.8%
Cc1ccn2c(c1)nc(=O)c1cc(S(=O)(=O)N3CCCCC3)c(Cl)cc12,-2.5%
Cc1ccc(CC(=O)Nc2c(C(=O)N3CCN(c4ccccc4F)CC3)oc3ccccc23)cc1,15.7%
Cc1nc(S(=O)(=O)N2CCN(c3ccc(Cl)cc3)CC2)cn1C,-19.4%
CC(CNc1nc2ccccc2c2nc(-c3ccccc3)nn12)c1ccccc1 (centres undefined),-0.6%
O=C1c2[nH]nc(-c3ccccc3O)c2C(c2ccccc2F)N1Cc1ccncc1 (centres undefined),?

# As a working copy, part of the list above:
SMILES,miR-21 reporter
Cc1ccc(Cl)cc1N1CCN(C(=O)C2CCN(S(=O)(=O)Cc3ccccc3)CC2)CC1,19.7%
CCOC(=O)c1cc(-c2ccccc2)n(CC(=O)NCc2ccccc2OC)c1C,-4.0%
Cc1cccc(-n2ccnc2SCC(=O)Nc2ccc3c(c2)OCO3)c1,-11.3%
CC1CCc2c(sc(NC(=O)C3c4ccccc4Oc4ccccc43)c2C#N)C1 (centres undefined),21.2%
CC(C)c1ccc(Nc2nc3ccc(C(=O)c4ccccc4)cc3n3cnnc23)cc1,-8.0%
CCn1cc2nc(SCC(=O)Nc3ccc(OC)c(OC)c3)n(Cc3ccc(Cl)cc3)c(=O)c2n1,-13.1%
Cc1cccc(Cn2c(SCc3ccc(C(=O)NC4CCCCC4)cc3)nc3ccncc32)c1,-0.8%
CC(C)OCCCNc1ncnc2sc3c(c12)CCCC3,12.3%
CC(C)Oc1ccc(CNC(=O)c2ccc(NC(=O)N3CC(C)Sc4ccccc43)cc2)cc1 (centres undefined),3.5%
Cc1cccc(N(C)C(=O)Cc2c(C(=O)O)[nH]c3ccccc23)c1,9.9%
O=C(OCc1cc(=O)n2nc(C3CC3)sc2n1)c1ccccc1Cl,-41.8%
Cc1ccn2c(c1)nc(=O)c1cc(S(=O)(=O)N3CCCCC3)c(Cl)cc12,-2.5%
Cc1ccc(CC(=O)Nc2c(C(=O)N3CCN(c4ccccc4F)CC3)oc3ccccc23)cc1,15.7%

# Other structures follow:
SMILES,miR-21 reporter
CCc1ccc2occ(CC(=O)Nc3nnc(C)s3)c2c1,0.8%
CCOC(=O)c1cc(-c2ccccc2)n(CCC(=O)Nc2ccc(C)cc2Cl)c1C,0.4%
CCOCc1cc(CN2CCN(c3cccc(C(F)(F)F)c3)CC2)c(O)c2ncccc12,15.1%
COc1ccc(C(=O)N2c3ccccc3C(C)(c3ccc(Cl)cc3)CC2(C)C)cc1 (centres undefined),?
CCn1c(=N)c(C(=O)NC2CCCCC2)cc2c(=O)n3cccc(C)c3nc21,0.1%

# Compound activity as filed in PubChem.
